Source: PubChem BioAssay
Rango complex inh – inhibitors of Rango-importin beta complex formation. Rango CFP/YFP FRET sensor + importin beta, 45 min. actives 0.031% (n = 340,000). AID 540263. Potency, µM (titrated, usually from 92.2 µM), without a hit: top-dose inhibition of complex formation. Q14974; active = rising FRET ratio curve, often small or poorly fitted; inconclusive = mostly compound fluorescence or quenching in the first reads; inactive = flat curves in all reads;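 also: potency is read from the fitted curve at half-maximal effect; 0% = DMSO wells and 100% = buffer wells lacking importin beta; nearly all actives have a fitted effect of over 15% in size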
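FRET biosensor (snurportin 1 IBB flanked by EYFP and cerulean), 50 nM, with compound 5 min, then 0.125 microM importin beta in PBS, 1 mM DTT, 0.02% Tween-20, 0.1% BSA. CFP/YFP ratio read after 45 min at room temperature; pre-read flags interference.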
miR-21 reporter – miR-21 reporter, rising signal. HeLa miR-21 FLuc reporter, luciferase, 48 h. Potency, µM (top dose mostly 38.3 µM), for the others: at the top dose reporter change, positive = more light. 340,000 tested, under 10 active. AID 2288; active = well fitted rising curve with a large enough effect; inconclusive = small, poorly fitted or top-dose-only effect; inactive = no such curve, though single readings can be large or run the other way;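 also: % of control where 0% means no effect; miR-21 action dims this reporter so a rising signal means less miR-21 action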
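Luminescence from a firefly luciferase reporter carrying a miR-21 binding site downstream, stably expressed under a CMV promoter in HeLa cells that make miR-21 endogenously, reports miRNA modulation after 48 h compound exposure up to approximately 40uM final.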
GLA inh pH 4.5 – inhibitors of human alpha-galactosidase A at pH 4.5; purified enzyme, 4-MU-alpha-Gal fluorescence, pH 4.5; activity change, negative = inhibition, % at 105 µM; 230,000 tested, under 10 active; AID 1467; inconclusive = small, poorly fitted or top-dose-only inhibition, or a rising curve; inactive = flat fitted curve, though single readings scatter; no compound was filed as active;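 also: 0% = full activity with enzyme and -100% = basal without enzyme; dose as in the result columns while the protocol names 77 µM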
Target sequence (P06280 whole entry, looked up): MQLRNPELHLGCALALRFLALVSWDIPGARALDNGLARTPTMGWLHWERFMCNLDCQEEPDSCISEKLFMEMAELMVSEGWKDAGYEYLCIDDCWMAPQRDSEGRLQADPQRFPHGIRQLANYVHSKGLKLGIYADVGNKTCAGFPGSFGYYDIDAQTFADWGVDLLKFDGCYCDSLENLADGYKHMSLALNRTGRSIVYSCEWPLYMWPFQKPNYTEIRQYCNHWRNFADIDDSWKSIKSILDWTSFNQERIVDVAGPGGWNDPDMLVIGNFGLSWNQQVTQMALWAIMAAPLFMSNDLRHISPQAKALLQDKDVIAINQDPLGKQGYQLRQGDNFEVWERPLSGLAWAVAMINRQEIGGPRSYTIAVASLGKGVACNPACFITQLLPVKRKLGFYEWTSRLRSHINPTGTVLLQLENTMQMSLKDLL
Rango dissoc inh – inhibitors of RanGTP-induced Rango-importin beta complex dissociation | AID 540253 | O95149+P62826 | Biochemical FRET Rango-importin beta, RanGTP-induced dissociation | actives 0.071% (n = 340,000) | Potency, µM (highest dose often 46.1 µM), for the others: top-dose activity change, negative = inhibition; active means falling FRET ratio curve, often poorly fitted, with flat reads before Ran was added; inconclusive means other falling curves, or compound fluorescence or quenching; inactive means flat or rising ratio curve;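 also: potency is read from the fitted curve at half-maximal effect; % of control where 0% means no effect; nearly all actives have a fitted effect of over 45% in size; -100% = wells without RanGTP and RCC1; the record marks most hits as doubtful in a second field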
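Quantitative HTS using a FRET biosensor: 0.1 uM Rango, 0.25 uM importin beta, 0.6 uM Ran, 2 mM GTP, 0.2 uM RCC1 final, PBS with DTT, Tween-20 and BSA. Post-read taken 45 min after Ran addition.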
Starred values were filed as active, the others as inactive; ? = inconclusive; / = not tested or not shown; & = joins results of further samples. Only part of the results is shown, so the mix of outcomes need not match the whole.

Sample of the layout:
Rango complex inh	SMILES	miR-21 reporter	GLA inh pH 4.5	Rango dissoc inh
-2.3%	C(#CCN1CCOCC1)COCCCOC(c1ccccc1)c1ccccc1	-4%	1	0%
0.1%	COc1ccccc1N1CCN(C2CCCN(C(=O)CN3CCCC3=O)C2)CC1 (stereo not given)	-2%	/	7%

The whole of this part, previewed entries included:
Rango complex inh	SMILES	miR-21 reporter	GLA inh pH 4.5	Rango dissoc inh
-2.3%	C(#CCN1CCOCC1)COCCCOC(c1ccccc1)c1ccccc1	-4%	1	0%
0.1%	COc1ccccc1N1CCN(C2CCCN(C(=O)CN3CCCC3=O)C2)CC1 (stereo not given)	-2%	/	7%
1.0%	CC(C)C(=O)Nc1cccc(NC(=O)CCN2C(=O)c3ccccc3S2(=O)=O)c1	-9%	4	8%
-1.6%	O=C(NCCS(=O)(=O)NCc1ccc(F)cc1)c1ccc2c(c1)OCO2	/	/	9%
1.2%	COc1cccc(OCC(=O)Nc2c3c(nn2-c2ccc(F)cc2)CS(=O)(=O)C3)c1	-1%	/	3%
-0.1%	Cc1ccc(S(=O)(=O)N[C@@H](CO)C(=O)N[C@@H](Cc2ccc(O)cc2)C(=O)O)cc1	-5%	/	19%
1.4%	COc1ccc(CSc2nncn2N)cc1[N+](=O)[O-]	-7%	1	-14%
1.2%	CN1c2ccsc2C(=O)/C(=C\Nc2cccc(C(F)(F)F)c2)S1(=O)=O	-1%	3	15%
-1.2%	CCOC(=O)c1cnc(-n2nc(C)cc2C)nc1Nc1ccc(N(C)C)cc1	-2%	-4	15%
6.1%	COc1ccc(S(=O)(=O)Nc2ccc(F)cc2F)cc1C(=O)N1CCOCC1	-5%	/	16%
1.5%	O=S(=O)(c1ccc2nnn(OCc3ccccc3)c2c1)N1CCOCC1	/	/	34%
-1.2%	Cc1cccc(NC(=O)CN(C)S(=O)(=O)c2ccc(Cl)cc2)n1	-6%	0	-8%
-0.1%	CCOc1ccc(S(=O)(=O)n2ccnc2)c2ccccc12	-2%	1	-11%
?	C=CCNC(=S)NNC(=O)c1ccc(OCC)cc1	-12%	-6	-11%
-1.8%	COc1ccccc1NC(=O)c1ccc(NC(=O)c2ccc(=O)[nH]c2)cc1	/	/	-2%
-0.3%	CCN(CC)S(=O)(=O)c1csc(C(=O)NC2CCCCC2)c1	-13%	1	-4%
-2.4%	CC(C)(Nc1ccccc1)C(=O)c1ccccc1	-5%	-5	-11%
5.1%	CN(C)c1cccc(C(=O)NC2CCCc3ccccc32)c1 (stereo not given)	-4%	/	2%
-0.9%	CC1(C)C=C2C(=NN(c3ccccc3)C(N)=C2C#N)CO1	-8%	/	-6%
?	CCOC(=O)c1c(NC(=O)CSc2nc3ccc(OC)cc3[nH]2)sc2c1CC(C)(C)NC2(C)C	/	/	-23%
-1.0%	O=C(NCc1ccco1)C1CCN(Cc2ccc(F)cc2)CC1	-1%	0	0%
-0.8%	Fc1ccc(-c2ccc3c(c2)C2CC3CCN2Cc2ccc3c(c2)OCO3)cc1 (stereo not given)	/	/	-18%
-2.4%	NC(=O)C1CCN(c2ccnc3cc(Cl)ccc23)CC1	1%	3	3%
-5.0%	CCCOc1ccc(C2C(C#N)=C(N)Oc3nc[nH]c(=O)c32)cc1OC (stereo not given)	0%	1	0%

Among those listed so far, three contain a thiophene ring, fused or not:
Rango complex inh	SMILES	miR-21 reporter	GLA inh pH 4.5	Rango dissoc inh
1.2%	CN1c2ccsc2C(=O)/C(=C\Nc2cccc(C(F)(F)F)c2)S1(=O)=O	-1%	3	15%
-0.3%	CCN(CC)S(=O)(=O)c1csc(C(=O)NC2CCCCC2)c1	-13%	1	-4%
?	CCOC(=O)c1c(NC(=O)CSc2nc3ccc(OC)cc3[nH]2)sc2c1CC(C)(C)NC2(C)C	/	/	-23%

New compounds follow.
Rango complex inh	SMILES	miR-21 reporter	GLA inh pH 4.5	Rango dissoc inh
-0.8%	Cc1ccnc2c(N3C(=O)C4C5c6ccccc6C(c6ccccc65)C4C3=O)cccc12 (stereo not given)	24%	-5	15%
3.9%	CCOC(=O)c1ccc(NC(=O)NC2CCN(CC(=O)NCc3ccc4c(c3)OCO4)CC2)cc1	-7%	-2	?
0.2%	Brc1ccc(Br)c2cnccc12	/	/	5%
8.1%	CC(C)c1ccc(NC(=S)N2CCN(Cc3ccccc3)CC2)cc1	-3%	-21	-9%
6.5%	CN(C)c1ccc(NC(N)=S)cc1	-15%	-2	-16%
0.8%	NC(=O)c1ccc(NC(=O)c2cccc(Oc3ccccc3)c2)cc1	-34%	4	14%
0.0%	COc1ccc(C(C(=O)NC(C)(C)C)N(Cc2ccc(C)cc2)C(=O)CCC(=O)Nc2cc(C)on2)cc1 (stereo not given)	5%	-2	14%
1.5%	Cc1ccc(-c2c(C)nn3c(N4CCOCC4)cc(C)nc23)cc1	0%	/	-7%
-0.3%	O=S(=O)(c1cccc(Br)c1)N1CCN(c2ccnc3cc(Cl)ccc23)CC1	11%	/	17%
0.8%	CCOc1ccc(N2CCc3c(C)nc(SC)nc32)cc1	6%	-10	12%
1.7%	c1ccc(CN2CCC(N3CCC(N4CCCCCC4)CC3)CC2)cc1	-6%	/	10%
-0.2%	O=C(c1cc2ccccc2oc1=O)N(c1ccccc1)C1C=CS(=O)(=O)C1 (stereo not given)	5%	15	25%
-1.0%	CCCCCCCC(O)CC(CC1CCCCC1)C(=O)NN (stereo not given)	-1%	-10	-1%
-1.5%	CC1S/C(=N/N=C/c2cccc([N+](=O)[O-])c2)NC1=O (stereo not given)	1%	-5	19%
0.0%	COc1ccc(CCN=C(N)NS(=O)(=O)c2ccc(C)c(C)c2)cc1	-7%	-7	4%
1.5%	C(=N\Nc1nc2ccccc2s1)/c1ccc2c(c1)OCO2	-55%	4	-4%
0.4%	CCNS(=O)(=O)c1ccc(NC(=O)c2cncc(Br)c2)cc1	-6%	6	-13%
3.1%	O=C(NC1CC2CCCC(C1)N2Cc1ccc(F)cc1)c1ccc(F)cc1 (stereo not given)	0%	/	-1%
7.8%	Cc1ccc(C)c(OC(=O)c2ccncc2)c1	-18%	15	-5%
-1.0%	O=C(CCCN1C(=O)c2cccc3cccc(c23)C1=O)Nc1nccs1	-1%	4	6%
0.0%	CCC(Oc1ccccc1)C(=O)NCc1cccnc1 (stereo not given)	-7%	-1	-3%
3.9%	Cc1cccc(N(C(=O)c2cnc3n(c2=O)CCS3)C2CCCCC2)c1	1%	1	-4%
-1.8%	Cc1cccc(C2(c3cccc(C)c3)OC(=O)c3ccccc32)c1	-4%	-3	15%
-1.1%	O=C(O)CC(NC(=S)NCc1ccccc1)C(=O)O (stereo not given)	9%	1	-3%
-0.8%	Cn1c(N)c(C(=O)COC(=O)CC(NC(=O)c2ccccc2Cl)c2ccccc2)c(=O)n(C)c1=O (stereo not given)	-7%	-1	-12%
1.8%	CC(=O)Nc1nc(CC(C)C)cc(-c2ccccc2)c1C#N	0%	2	11%
6.6%	CCOC(=O)CN1C(=O)N[C@@H](c2cccc(F)c2)C(C(=O)OC)=C1C	/	7	-8%
?	Cc1cccc(NC(=O)c2ccc(N3C(=O)C4C5C=CC(C6CC56)C4C3=O)cc2)c1 (stereo not given)	4%	/	-10%
5.8%	Cc1cc(N2CCN(C(=O)c3ccco3)CC2)n2ncc(-c3ccccc3)c2n1	-30%	2	3%
-0.9%	Cc1ccnc(OC(C(=O)O)C(OCCc2ccccc2)(c2ccccc2)c2ccccc2)n1 (stereo not given)	17%	/	0%
-0.2%	Fc1ccc(/C=N/N2CCCCC2)c(F)c1	-2%	/	14%
-4.4%	COc1ccc(S(=O)(=O)N(C)c2ccc(C(=O)NCc3ccco3)cc2)cc1	5%	/	19%
0.0%	COc1ccccc1CNC(=O)C1(C)Oc2cccnc2NC1=O (stereo not given)	2%	-9	0%
0.0%	CC(C)NC(=O)c1c(O)c2cccc3c2n(c1=O)CCC3	-3%	/	-7%
0.9%	CN(CC(=O)Nc1ccccc1Br)C(=O)C1CCN(C(=O)c2ccc(Cl)cc2)CC1	/	/	0%
0.0%	Cc1ccc(NC(=O)Cn2cccc2)cc1Cl	-5%	-5	6%
-0.4%	CC(C)c1ccccc1NCC(=O)N1CCN(Cc2ccccc2)CC1	2%	/	-14%
-1.7%	COc1ccc(CNC(=O)C(=O)NCCC2CCCCN2S(=O)(=O)c2ccccc2)cc1 (stereo not given)	/	/	-16%
1.7%	Cc1ccc(C)c(NS(=O)(=O)c2cc(C(N)=O)ccc2C)c1	0%	-5	9%
-0.9%	COc1cc2c(cc1OC)/C(=C/C#N)NC(C)(C)C2	-33%	-16	-16%

A different layout for two compounds above.
SMILES: COc1ccc(CNC(=O)C(=O)NCCC2CCCCN2S(=O)(=O)c2ccccc2)cc1 (stereo not given)
  Rango complex inh: -1.7%	miR-21 reporter: /	GLA inh pH 4.5: /	Rango dissoc inh: -16%

SMILES: Cc1cccc(N(C(=O)c2cnc3n(c2=O)CCS3)C2CCCCC2)c1
  Rango complex inh: 3.9%	miR-21 reporter: 1%	GLA inh pH 4.5: 1	Rango dissoc inh: -4%

(further entries)
Rango complex inh	SMILES	miR-21 reporter	GLA inh pH 4.5	Rango dissoc inh
-0.8%	O=C(CCCOc1ccccc1)Nc1cccnc1	0%	-5	-11%
0.0%	N#Cc1cccc(NC(=O)Nc2cccs2)c1	0%	-20	-8%
?	O=C(/C=C/c1ccc(O)c(O)c1)OCCc1ccccc1	/	-6&-3	-19%
0.3%	S=C(NC1CCCC1)N1CCN(c2cccc(Cl)c2)CC1	6%	0	14%
-0.1%	Cc1sc2nc(CSCC(=O)N(CCC#N)c3ccccc3)[nH]c(=O)c2c1C	-3%	-15	3%
?	CN1/C(=C/C=N/NC(=O)c2ccc([N+](=O)[O-])cc2)C(C)(C)c2ccccc21	-2%	-5	0%
-3.8%	O=C(CCn1c(=S)oc2ccccc21)NC1CCCCC1	1%	-4	-6%
2.6%	O=S(=O)(NCC1CCCO1)c1cc(Cl)ccc1Cl (stereo not given)	1%	9	12%
0.7%	FC(F)(F)COc1nc(N2CCOCC2)nc(N(c2ccccc2)c2ccccc2)n1	20%	-11	0%
-4.3%	CCN(CC)C(=O)CN(c1cccc(C(F)(F)F)c1)S(C)(=O)=O	0%	2	4%
-2.9%	Cc1ccc(Oc2ccc(Cl)cc2NC(=O)c2cnccn2)cc1	-11%	-12	3%
-0.2%	COc1cccc(C(=O)c2c[nH]c(C(=O)NCc3ccco3)c2)c1	-25%	3	11%
0.7%	O=C(Nc1ccccc1)c1cc(S(=O)(=O)NCc2ccncc2)ccc1Cl	15%	/	1%
-0.6%	Cc1ccccc1N1CCN(Cc2cccc(C(=O)O)c2)CC1	-5%	0	-8%
2.7%	O=C(CCC(=O)Nc1nnc(C2CCCCC2)s1)NCc1ccc(F)cc1	-6%	/	-4%
-3.6%	Cc1cc(=O)oc2c(C)c(OCC(=O)NCCCn3ccnc3)ccc12	3%	/	-2%
0.2%	CCc1nnc(NC(=O)CSc2nnc(C)n2CC2CCCO2)s1 (stereo not given)	-1%	1	-3%
-2.4%	CC1(N(O)/C=C2\C=CC=CC2=O)CCCCC1=O (stereo not given)	4%	-1	0%

Compound profiles, as listed above. Order of values: Rango complex inh	miR-21 reporter	GLA inh pH 4.5	Rango dissoc inh
CCc1nnc(NC(=O)CSc2nnc(C)n2CC2CCCO2)s1 (stereo not given) across the screens: 0.2%	-1%	1	-3%
Cc1ccccc1N1CCN(Cc2cccc(C(=O)O)c2)CC1 across the screens: -0.6%	-5%	0	-8%
COc1cccc(C(=O)c2c[nH]c(C(=O)NCc3ccco3)c2)c1 across the screens: -0.2%	-25%	3	11%
CC1(N(O)/C=C2\C=CC=CC2=O)CCCCC1=O (stereo not given) across the screens: -2.4%	4%	-1	0%
